HSD17B inhib = inhibitors of human HSD17B10 dehydrogenase. hit rate 7.6% among 75,000. recombinant HSD17B10, NADH fluorescence kinetic; many of its hits are not listed in these tables. Potency, µM (series often up to 57.1 µM), inactives show at the highest dose activity change, negative = inhibition, most hits filed as inhibitors. Q99714; active = well fitted inhibition curve with a large enough effect; inconclusive = small, poorly fitted or top-dose-only effect; inactive = no such curve, though single readings can be large or run the other way;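 note: the protocol describes HADH2 (HSD17B10) and not the HSD17B4 of the title; nearly all actives have a fitted effect of over 70% in size; most hits overshoot -100% by far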
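His-tagged E. coli-expressed HADH2 at 20 nM in 100 mM Tris-HCl pH 9.0 with 0.01 % Tween-20, preincubated 15 min with compound at room temperature. Reaction with 1 mM NAD+ and 90 uM beta-hydroxybutyryl coenzyme A; NADH fluorescence (360/450 nm) read kinetically over 4 min, last minus first point.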
* = called active by the depositor; ? = inconclusive; [ ] = dose if it differs, or a comment. % is set by controls: 0 for no effect and ±100 for the full control effect; potency is the fitted concentration of half-maximal effect. A portion of the library; the hit share may differ from the screen's.

#	SMILES	HSD17B inhib
1	CCOc1ccc(Nc2nc(Cc3nnc(SCC(=O)O)o3)cs2)cc1	-26%
2	Nc1nc(-c2ccccc2)cc(N2CCCCC2)n1	-27%
3	Cc1ccc(-n2c3c(cc(C(=O)O)c2=O)C(=O)CC(C)(C)C3)cc1	3%
4	C=CCn1c(C(C)NC(=O)CCC)nc2ccccc21 (stereo not drawn)	-9%
5	O=C(O)C1(O)CC(O)C(O)C(O)C1 (stereo not drawn)	-4%
6	CC(C)(C)c1ccc(C(=O)N2CCC(C(=O)NCC3CCCO3)CC2)cc1 (stereo not drawn)	3%
7	Cc1ccc2c(C)nc(NC3=NCN(Cc4ccccc4)CN3)nc2c1	8%
8	Cn1nnnc1SCC(=O)N(C1CCCCC1)C1CCCCC1	-6%
9	CCS(=O)(=O)c1nc2ccccc2n1CC(=O)N1CCOCC1	7%
10	COc1ccc(Cl)cc1NC(=O)C1CCCO1 (stereo not drawn)	-9%
11	COc1ccc(N2CCN(CCCNS(=O)(=O)c3c(C)noc3/C=C/N(C)C)CC2)cc1	-5%
12	CC1=C(C(=O)Nc2ccc(Cl)cc2)C(c2ccco2)NC(=O)N1 (stereo not drawn)	-1%
13	Cc1cccc(-c2nc(CN3CCCC(C(=O)NC4CCC(C)CC4)C3)c(C)o2)c1 (stereo not drawn)	3%
14	O=C(Cn1c(CN2CCCCC2)nc2ccccc2c1=O)Nc1ccccc1	-3%
15	O=C(NC1(C(F)(F)F)NC(=O)N(Cc2cccnc2)C1=O)c1ccncc1 (stereo not drawn)	-10%
16	CCOc1ccc2[nH]cc(C(=O)N3CCN(CC)CC3)c(=O)c2c1	25µM*
17	COc1ccccc1NC(=O)c1ccc(NS(C)(=O)=O)cc1	-2%
18	CCNC(=O)C1CC(=O)N(c2ccc(OCC)cc2)C1 (stereo not drawn)	0%
19	CCN1C(=O)c2cccc3c(NC(=O)c4ccc(S(=O)(=O)N(C)C)cc4)ccc1c23	-6%
20	Cc1nc2ccccn2c1/C(O)=C1\C(=O)C(=O)N(CCN(C)C)C1c1cccnc1 (stereo not drawn)	5%
21	CCOC(=O)/C(N=O)=C(\O)C1CCN(C(=O)OCC)CC1	2%
22	CCOC(=O)c1[nH]c(C)c(C(=O)NCc2ccc(Cl)cc2)c1C	10%
23	O=C(Cc1ccc(F)cc1)N(c1ccccc1)C1C=CS(=O)(=O)C1 (stereo not drawn)	2%
24	COc1cc(C(=O)NCCc2ccc3c(c2)OCCO3)ccc1OCC(=O)N1CCOCC1	5%
25	O=C(COc1ccccc1)Nc1ccc(S(=O)(=O)N2CCOCC2)cc1	8%
26	CN1CC(=O)N(C)c2ncn(Cc3ccccc3)c2C1=O	2%
27	O=C1CC(c2ccco2)Cc2nc(N3CCN(Cc4ccc5c(c4)OCO5)CC3)ncc21 (stereo not drawn)	-6%
28	O=C(Cn1cnc2c(cnn2-c2ccc(F)cc2)c1=O)NCCc1ccccc1	2%
29	O=C(Cn1ncc2c1-c1ccccc1OC2)Nc1ccc(S(=O)(=O)N2CCCCC2)cc1	-7%
30	CCS(=O)(=O)C(=C1NCCO1)S(=O)(=O)CC	-2%
31	COc1ccc(S(=O)(=O)N2CCN(C)CC2)cc1C	-4%
32	O=C1CC(CCC(=O)NC2CC2)c2ccccc2N1 (stereo not drawn)	-9%
33	Cc1cccc(C)c1NC(=O)N1CC=C(n2c(=O)[nH]c3ccccc32)CC1	4%
34	O=C(c1ccco1)N1CCC2(CCN(Cc3cc(C(F)(F)F)cc(C(F)(F)F)c3)CC2)CC1	-7%
35	Cc1ccccc1OCc1nnc(SCC(=O)NCc2ccccc2)n1C	11%
36	COc1ccc(CCNc2oc(-c3ccco3)nc2C#N)cc1	32µM*
37	COc1ccccc1CCNC(=O)c1ccoc1C	2%
38	CC1=C(C(=O)Nc2ccc(F)cc2)C(c2ccc(C)o2)C2=C(CC(C)(C)CC2=O)N1 (stereo not drawn)	-9%
39	CC(=O)N1CCN(c2ccc(N=Cc3c(O)n(Cc4ccccc4)c(=O)[nH]c3=O)cc2)CC1	3%
40	COc1ccc(C2CCN(Cc3cccnc3)CC2O)cc1 (stereo not drawn)	2%
41	O=C(O)C1C2C=CC(C3CC23)C1C(=O)O (stereo not drawn)	-2%
42	COC(=O)c1cccc(C23CC4(C2)[C@H](CN(CC2CCCCC2)[C@@H]4c2ccccc2)C3c2ccc(Cl)nc2)c1 (stereo partly drawn)	2%
43	O=C(Nc1ccc(N2CCCCC2)cc1)c1cncc(Br)c1	5%
44	CCc1ccccc1NC(=O)c1ccc(F)c(S(=O)(=O)N2CCC(C(N)=O)CC2)c1	-10%
45	O=C(/C=N/O)NCCCN1CCCCCC1	0%
46	COC(=O)c1ccc(C(NC(=O)OCc2ccccc2)/C(=C/[C@@H](C)C(=O)Nc2ccc(OC)cc2)c2cccnc2)cc1 (stereo partly drawn)	-5%
47	O=C1Cc2ccccc2N1c1ccccc1	4%
48	Cc1nc2ccccc2c2oc(C(=O)NC3CC3)cc12	8%
49	CCOC(=O)c1oc2ccccc2c1NC(=O)CN1CCN(C)CC1	-6%
50	Nc1nc(-c2cccc([N+](=O)[O-])c2)cc(-c2cc(-c3cccc([N+](=O)[O-])c3)nc(N)n2)n1	0%[11.4 µM]

(list continues)
#	SMILES	HSD17B inhib
51	COc1cc2c(cc1OC)CN(C(=O)CSc1nnc(C)s1)CC2	15%
52	CCC1CCCCN1Cc1ccc(OC)c(OC)c1 (stereo not drawn)	6%
53	O=C(CSc1nncs1)NC(=O)NCc1ccccc1	2%
54	CC1(C)Cc2ccccc2C2CC(O)C(=O)N21 (stereo not drawn)	-18%
55	O=C(CSc1nc2ccccc2c(=O)n1CCCO)NCc1ccccc1	4%
56	CCOc1ccc(C2C(C(=O)c3ccco3)=C(O)C(=O)N2Cc2cccnc2)cc1OC (stereo not drawn)	58%[activator]
57	C=CCn1c(SCn2nnc3ccccc3c2=O)nnc1-c1ccc(F)cc1	-5%
58	Cc1noc(C)c1-c1ccc2ncnc(Nc3ccc(F)cc3)c2c1	1%
59	CC(Cc1ccccc1)C(=O)NCC1CC1 (stereo not drawn)	14%
60	O=C(c1cc(C(F)(F)F)cc(C(F)(F)F)c1)N1CCC2(CCCN(c3ccccn3)C2)CC1	-20%
61	CCC(c1nnnn1C(C)(C)CC)N(CCCO)Cc1cc2cccc(C)c2[nH]c1=O (stereo not drawn)	?
62	CN(C)c1ccc(-c2nc(NCc3cccnc3)c3ccccc3n2)cc1	32µM*
63	O=C(CS(=O)(=O)Cc1ccccc1)Nc1cccnc1	-4%
64	CCOc1ccccc1Nc1ncnc2ccccc12	?
65	O=C(COC(=O)C1COc2ccccc2O1)NC1CCS(=O)(=O)C1 (stereo not drawn)	17%
66	COc1cnn(-c2ccccc2)c(=O)c1N(C)C	4%
67	O=C(CCc1ccccc1)NCCCN1CCOCC1	7%
68	COC(=O)c1c(C(=O)OC)c(C)n(Cc2cccnc2)c1C	-13%
69	O=C1CSC(=O)N1CC(O)COc1ccc(Cl)cc1 (stereo not drawn)	0%
70	c1ccc(CN2CCN(c3nc(-c4ccccc4)nc(-n4ccnc4)n3)CC2)cc1	-9%
71	Cn1c(Cc2cccs2)nnc1SCc1nc2ccccc2[nH]1	-9%
72	O=C(O)c1ccccc1C(=O)NCc1cccnc1	-4%
73	Cc1ccc(C(=O)Nc2ccc(S(=O)(=O)N3CCN(C)CC3)cc2)o1	2%
74	CCCc1nc2sc3c(c2c(=O)n1N)CCC3	-5%
75	Cc1nn(Cc2ccccc2)c2c1C(c1ccncc1)C(C#N)=C(N)O2 (stereo not drawn)	?
76	CC(C)(C)c1cc(NC(=O)COC(=O)c2ccc3c(=O)n4c(nc3c2)CCC4)n(-c2ccccc2)n1	3%
77	O=C(NC1CCCCCC1)c1cc(S(=O)(=O)N2CCOCC2)ccc1N1CCCCC1	2%
78	Cc1cc(NS(=O)(=O)c2ccc(OCCNS(C)(=O)=O)cc2)no1	3%
79	Cc1ccc2c(NC(=O)C3CC3)c(C)ccc2n1	8%
80	O=C(CN(C(=O)c1cc2c(s1)CCC2)C1CCCC1)NCc1cccs1	-10%
81	COc1cccc(NC(=O)C2CCCN(S(=O)(=O)c3cccc4cccnc34)C2)c1 (stereo not drawn)	6%
82	CCCCNC(=O)CCCn1c(=O)[nH]c2ccc(Br)cc2c1=O	1%
83	COc1cccc(-n2c(C)nnc2SCC(=O)Nc2ccccc2N2CCOCC2)c1	1%
84	O=C(O)CCNS(=O)(=O)c1ccc2c(c1)Cc1ccccc1-2	0%
85	O=C(O)CCC(=O)CCC(=O)c1ccc(Cl)cc1	-7%
86	Cc1ccc(NC(=O)NCCc2ccc(S(N)(=O)=O)cc2)cc1	4%
87	Cc1cc2cc(CNC(=O)C3CC3)ccc2n1C	10%
88	COc1ccc(N(C(=O)Nc2ccc(Cl)cc2)C2=NCCC2)cc1	7%
89	O=C(COC(=O)C1c2ccccc2Oc2ccccc21)NC1CCS(=O)(=O)C1 (stereo not drawn)	1%
90	Cc1ccc(NC(=O)c2c(O)c3ccccc3n(C)c2=O)nc1	1%
91	COc1ccc(N2CCN(S(=O)(=O)c3cccs3)CC2)cc1	6%
92	Fc1ccc(Cn2nnnc2CN2CCN(C3CCCC3)CC2)cc1	-4%
93	CCCc1cc(C(=O)Nc2sc(C)c(CC)c2C#N)no1	?
94	CCOC(=O)C(NC(=O)c1ccccc1)=C1CCCCC1	7%
95	Cc1ccc(S(=O)(=O)Nn2c(C)nnc2-n2nc(C)cc2C)cc1	8%
96	Cc1noc(N)c1C(=O)Nc1ccc(F)cc1	3%
97	CCCn1nc(C(=O)Nc2cc(C(=O)OC)ccc2C)c2ccccc2c1=O	-5%
98	Cc1cc(N2CCCC2)nc(-c2ccccc2O)n1	32µM*
99	COc1ccccc1N(CC(=O)NC1CCCCC1)C(=O)CCC(=O)Nc1ccccn1	6%
100	CCOC(=O)C1CCN(Cc2ccc(F)c(Br)c2)CC1	4%

(continued)
#	SMILES	HSD17B inhib
101	O=C(c1ccc(-n2cnnn2)cc1)N1CCN(C(c2ccccc2)c2ccccc2)CC1	-6%
102	Cc1cc(C)n2nc(S(=O)(=O)N(C)c3ccccc3)nc2n1	7%
103	COc1ccc(CNC(=O)c2cc(-c3ccccc3O)n[nH]2)cc1	3%
104	Cc1cc(=O)oc2cc(OCC(O)CN3CCc4ccccc4C3)ccc12 (stereo not drawn)	32µM*
105	CN(C)CCCNCCCNC(=O)c1ccco1	11%
106	Cn1c(=O)[nH]c(=O)c2c1nc(CN1CCN(c3cccc(Cl)c3)CC1)n2Cc1ccccc1Cl	?
107	COC(=O)C1CCN(C(=O)COC(=O)c2n[nH]c3ccccc23)CC1	?
108	CCN(CC)CCN(Cc1cc2cc(C)ccc2[nH]c1=O)C(=O)Nc1ccccc1OC	-6%
109	N#C/C(C(N)=O)=c1/ccc2c(c1)N1C3=C(CCCC3)CC3CCCCC31N=2 (stereo not drawn)	-4%
110	O=C(CN1C(=O)c2ccccc2C1=O)N1CCN(c2ccccn2)CC1	353%[activator]
111	CNS(=O)(=O)c1cc(OCC(N)=O)c(C)cc1Cl	8%
112	C=CCn1c(SCC(=O)Nc2ccccc2CC)nnc1-c1ccncc1	4%
113	O=C(COC(=O)CCC(=O)c1ccc2c(c1)OCCO2)NCc1ccc2c(c1)OCO2	-4%
114	Nc1nnnn1NCc1cccc(OCc2ccccc2)c1	1%
115	Cc1ccccc1N(CC(=O)NCc1ccncc1)S(C)(=O)=O	1%
116	FC(F)(F)c1cc(-c2ccccc2)nc(-n2cncn2)n1	-6%
117	O=C(O)c1cc2ccccc2n1-c1ccccc1	7%
118	COc1ccc(C2C(C#N)=C(N)Oc3c2oc(CO)cc3=O)c(OC)c1OC (stereo not drawn)	-4%
119	CCCCOc1ccccc1NC(=O)CSc1nnnn1C(C)(C)C	-12%
120	CCCC(=O)Nc1ccc(N2CCN(C(=O)c3cccs3)CC2)cc1	3%
121	COCCCn1c(=N)c(C(=O)NCc2ccc3c(c2)OCO3)cc2c(=O)n3cccc(C)c3nc21	-17%
122	COC(=O)c1c(-c2cc(OC)c(OC)c(OC)c2)c2ccc(OCc3ccccn3)cc2c(=O)n1-c1ccc(N)cc1	40%[activator]
123	COC(=O)COc1ccc2c(=O)c(Oc3ccccc3)c(C)oc2c1	14%
124	CCOC(=O)c1cnn(-c2cc(C)nc3c(-c4ccccc4)c(C)nn23)c1N	8%
125	COc1ccc(C)cc1NS(=O)(=O)c1cn(C)c(=O)n(C)c1=O	10%
126	COc1ccccc1NC(=O)Nc1c(C)n(C)n(-c2ccccc2)c1=O	1%
127	COc1ccccc1CC(=O)Nc1ccc(O)cc1C(=O)O	32µM*

Bioassay records from PubChem.
